Sa ugtP lethal: compounds lethal to S. aureus RN4220 ugtP deletion mutant. OD600 growth, 16 h; some inactives read as strong as hits. actives 0.54% (n = 330,000). growth inhibition, % (test concentration not listed);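 active = z-score under -3 and OD600 up to 0.15 on both plates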;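 note: plate controls were untreated wells for no effect and antibiotic for full effect; wells of about 80 µL received 100 nL stock; the first replicate is given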
Sa RN4220 lethal: S. aureus RN4220 growth inhibition; OD600, 16 h; AID 1259311; inhibition, % (no concentration beside the values); actives 0.33% (n = 330,000);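 active = z-score of -3 or lower and OD600 up to 0.18 on both plates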;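 note: plate controls were untreated cells for no effect and reference antibiotic for full effect; stock transfer was 100 nL into about 80 µL; one replicate is shown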
PrP UTR inh: inhibition of PrP 5' UTR reporter expression; cell-based PrP 5' UTR mRNA reporter, plate reader; inhibition, % (test concentration not listed); actives 0.35% (n = 340,000);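 active = every replicate at 50% or more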;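 note: 0 = median of the neutral control wells; tested in H4 reporter cells; numbers are from one replicate; inactives centre near -14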
BJeLR lethal: BJeLR cell viability loss; BJeLR (HRASV12) viability, CellTiter-Glo ATP luminescence, 48 h; reference of the scale not given here; actives 0.17% (n = 300,000); inhibition, % (concentration not given with the values);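 active = replicate mean above 50%; inconclusive = above 50% but judged a plate artefact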;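 note: 50 nL library stock added to about 25 µL; numbers are from one replicate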
Bead autofluor: compound fluorescence in toxin protease inhibitor counterscreen; compound autofluorescence counterscreen, microsphere flow cytometry; hits give high values; fluorescence intensity (test concentration not listed); actives 3.1% (n = 360,000);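 active = at least 3 SD above the mean of all compounds, about 16000 in these data; inconclusive = too few beads counted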;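 note: 100 nL of 1 mM stock went into each well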
Mtb hypoxia inh: reduces hypoxia-regulated biosensor signal in M. tuberculosis. AID 1159583. actives 0.1% (n = 300,000). fluorescence inhibition, % (no concentration beside the values). M. tuberculosis hypoxia-regulated fluorescent reporter, fluorescence;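 active = 35 to 45% if threefold the growth effect, above 45% if 1.5-fold the growth effect; inactive = the rest, general growth blockers included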;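 note: wells of about 50 µL received 100 nL stock; 0% = vehicle wells and 100% = reference inhibitor wells; whole bacteria with a GFP reporter of the hypoxia response; strong numbers were not always called active; many hits fall short of the cut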
Mtb hypoxia inh growth: second read-out of Mtb hypoxia inh, no call of its own (marks repeat the call); growth inhibition, %; measured here: M. tuberculosis growth (absorbance);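 0% = vehicle and 100% = reference antibiotic; read after six days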
An asterisk follows results filed as active; u = inconclusive; x = not tested or not shown.

Under each structure: Sa ugtP lethal	Sa RN4220 lethal	PrP UTR inh	BJeLR lethal	Bead autofluor	Mtb hypoxia inh	Mtb hypoxia inh growth
Oc1ccc(Br)cc1/C=N/N1CCN(Cc2ccccc2)CC1
 : x	x	-30	-7	2810	x	x
CCOC(=O)Cc1csc(NC(=O)CCN2C(=O)c3ccccc3C2=O)n1
 : -2	-3.9	-15	5	4339	-3	0
Cc1cccc2sc(NC(=O)[C@H](C)N3C(=O)C4CC=CCC4C3=O)nc12 (stereo partly specified)
 : 3	8.3	-9	5	3886	-7	7
Cc1ccsc1C=NN=Cc1sccc1C
 : 4	7.6	x	x	x	10	-4
O=C1c2cccnc2C(O)N1Cc1cccs1 (stereo unspecified)
 : 4	2.0	x	8	10043	1	0
Cc1cc2c(c(C)nn2-c2ccccc2)c(=O)o1
 : -8	-0.4	-22	3	2410	x	x
CC(C)(C)c1ccc(C2C3=C(CCCC3=O)NC3=C2C(=O)c2ccccc23)cc1 (stereo unspecified)
 : -1	-4.7	-22	x	10382	4	7
CN(CC(=O)Nc1ccc(F)cc1)C(=O)COC(=O)COc1ccc(C#N)cc1
 : 11	0.7	-21	2	5695	8	-8
COc1ccc(NC(=O)Nc2cccc(C(=O)N3CCOCC3)c2)cc1OC
 : 10	5.2	-6	x	2163	x	x
COc1ccc(C(=O)CSc2nc(C)cc(=O)[nH]2)cc1
 : 5	7.1	-9	-4	2438	2	4
N#CC1(C#N)C(c2ccccc2)OC23CCCCC2C1(C#N)C(=N)O3 (stereo unspecified)
 : 1	3.2	-38	4	8835	8	10
Cc1sc2nc(SCC(=O)NCc3ccco3)[nH]c(=O)c2c1C
 : -4	1.6	-10	x	6521	10	9
CCCCCCc1c(C)c2ccc(OCC(=O)N[C@@H](Cc3ccccc3)C(=O)O)cc2oc1=O
 : -1	9.9	-17	-13	5456	x	x
COc1ccc(NC(=O)c2c(N)cnn2C)cc1
 : 12	4.6	-13	1	3015	-2	2
CCn1c(O)c(/C=N/n2cnnc2)sc1=S
 : -11	20	-8	6	13980	-4	-4
CCOC(=O)CSc1n[nH]c(NC(=O)c2cccc(C(F)(F)F)c2)n1
 : 13	4.6	-24	-10	10776	1	5
Cc1ccc(C(=O)CSc2nc3c([nH]2)c(=O)n(C)c(=O)n3C)cc1
 : 0	2.2	-3	-5	2472	-2	0
Cc1cc(Cc2ccc(N)c(C)c2)ccc1N
 : 5	6.4	-21	7	3509	14	2
CC(=O)c1cccc(NC(=O)COC(=O)[C@@H](NC(=O)OCc2ccccc2)C(C)C)c1
 : 3	1.0	-3	-3	2653	9	1
CCC[N+]12CCC(CC1)C(C(O)(c1ccccc1)c1ccccc1)C2 (stereo unspecified)
 : 1	2.4	-7	0	6143	2	14
COc1ccccc1C(=O)Nc1ccc2c(c1)nc(CCNC(=O)c1ccccc1)n2C
 : x	x	-52	8	4137	x	x
CCOc1cc(C=NNc2nc(C)cc(=O)[nH]2)ccc1O
 : 10	-0.6	x	x	x	8	11
CC[C@]12c3[nH]c4cc(CCC(=O)N(C)C)ccc4c3CCN1C(=O)[C@@H](CC(=O)NC/C=C(\C)CCC=C(C)C)C[C@@H]2C(=O)N1CCN(C(=O)C2CC2)CC1
 : 2	-0.4	-21	x	3426	3	8
CN(C)c1ccc2c(c1)Sc1cc(N(C)C)ccc1N2C(=O)c1ccccc1
 : x	x	-12	5	4897	x	x
CC(NC(=O)c1ccc(S(=O)(=O)N(C)C)cc1)c1ccccc1 (stereo unspecified)
 : -7	-0.8	-17	-2	3910	-1	0
CC(C)(C)c1nn(-c2ccccc2)c2[nH]c(=O)c(C=O)cc12
 : 21	-13	-24	7	3914	-3	-8
O=C(CN1CCN(c2ccccn2)CC1)Nc1cccc(F)c1
 : 0	1.2	x	1	3157	17	0
O=C(c1cc(=O)c2ccccc2o1)N1CCN(c2ccccc2)CC1
 : 2	1.0	-10	-1	4349	9	5
COc1cccc2cc(C(=O)Nc3cc(C)cc(C)c3)/c(=N/NS(=O)(=O)c3ccccc3)oc12
 : x	x	-11	-1	5330	x	x
CCOc1ccc(C(=O)CSCC(=O)O)cc1
 : -2	4.5	-13	16	4752	-6	-3

Quoted at random: two compounds from above
Under each structure: Sa ugtP lethal	Sa RN4220 lethal	PrP UTR inh	BJeLR lethal	Bead autofluor	Mtb hypoxia inh	Mtb hypoxia inh growth
CCn1c(O)c(/C=N/n2cnnc2)sc1=S
 : -11	20	-8	6	13980	-4	-4
CCOc1cc(C=NNc2nc(C)cc(=O)[nH]2)ccc1O
 : 10	-0.6	x	x	x	8	11

Other results follow:
Under each structure: Sa ugtP lethal	Sa RN4220 lethal	PrP UTR inh	BJeLR lethal	Bead autofluor	Mtb hypoxia inh	Mtb hypoxia inh growth
COC(CNC(=O)c1ccc2c(c1)ncn2-c1cc(C)cc(C)c1)OC
 : 12	-0.2	-13	5	3477	0	-3
O=C(CCN1C(=O)/C(=C/c2cccc(Br)c2)SC1=S)NNC(=O)c1cccnc1
 : -2	7.4	-18	-18	16764*	2	3
COC(=O)c1ccc(NC(=S)Nc2cccc(C)n2)cc1
 : 9	4.4	-39	-4	4297	9	12
Nc1nonc1-n1nnc(C(=O)N/N=C/c2ccccc2O)c1CN1CCCC1
 : x	x	-9	30	4437	x	x
CCOc1ccccc1CN1CCN(Cc2cccc3c2OCO3)CC1CCO (stereo unspecified)
 : 8	3.2	0	-6	2633	5	-3
O=C1NCCN1c1ncc([N+](=O)[O-])s1
 : 77	25	10	x	5861	3	0
Cc1ccc(CN(Cc2ccco2)C(=S)NCC(=O)NCc2cccnc2)cc1
 : 6	3.8	-15	-7	4517	15	12
Nc1nc(NCc2ccco2)nc(N2CCOCC2)c1[N+](=O)[O-]
 : -3	21	-67	-2	3399	4	11
C=C(C)C1CC=C(CN2CCC(O)CC2)CC1 (stereo unspecified)
 : 10	0.5	-34	-6	4187	12	5
COCCNC(=O)/C(C#N)=C/c1ccc(O)cc1
 : 10	1.0	-23	-1	4439	6	13
O=c1[nH]n2c(-c3ccccc3)nc(O)c2c2ccccc12
 : x	x	-11	-14	2114	x	x
Cc1cc(C)nc(SCc2ccc(C(=O)NN=Cc3ccncc3)cc2)n1
 : 1	-4.2	x	x	x	-3	-12
O=C(NNS(=O)(=O)c1ccc(C(=O)NC2CCCC2)cc1)c1ccncc1
 : 4	1.5	-24	5	2120	2	4
CC1CC(C)CN(C(=O)COC(=O)C2CCN(S(=O)(=O)c3c(Cl)cccc3Cl)CC2)C1 (stereo unspecified)
 : -6	-1.6	-8	3	u	-1	-1
Cc1cccc(OCCCN2CCOCC2)c1C
 : 7	4.1	3	-6	4125	17	12
COc1ccc2nc(NC(=O)c3cccc(OCc4c(C)noc4C)c3)sc2c1
 : 23	26	41	5	8427	3	-2
Cc1ccc(NC(=O)COC(=O)C2CC2C)c(S(=O)(=O)N2CCCCC2)c1 (stereo unspecified)
 : 9	8.0	0	-7	3253	8	4
Cc1ccc(N(CC(=O)Nc2cc(Cl)ccc2Oc2ccccc2)S(C)(=O)=O)c(C)c1
 : -10	-4.5	-34	0	2815	x	x
CN1C(=O)CS/C1=N\NC(=O)COc1cccc2cccnc12
 : x	x	-86	4	4646	x	x
CCOC(=O)c1ccccc1-n1nnnc1C
 : 4	5.0	-8	5	4282	14	7
N#CCCSc1ccccc1NC(=O)c1cc(=O)c2ccccc2o1
 : -1	4.6	-15	12	4433	6	3
O=c1[nH]c(C2CCCN(S(=O)(=O)c3ccccc3Cl)C2)nc2c1nnn2Cc1ccc2c(c1)OCCO2 (stereo unspecified)
 : -13	-0.7	-4	1	5352	-4	7
CCOc1ccc(OCCOCCN2CCOCC2)cc1
 : 9	-0.5	-7	-9	3628	x	x
ClC1=CCC2CN(CCN3CCCCC3)CC2C1 (stereo unspecified)
 : 8	7.2	-14	10	4752	-4	8
O=C(CC1C(=O)NCCN1Cc1ccccc1C(F)(F)F)NC1CCCCC1 (stereo unspecified)
 : 11	4.2	1	8	4494	8	-4
Cc1cc(C)c(S(=O)(=O)Nc2ccc(N3CCOCC3)cc2)c(C)c1
 : -2	14	-4	18	5068	12	-3
O=c1cc(CN2CCN(c3ccc(F)cc3)CC2)c2cc3c(cc2o1)CCCC3
 : 3	2.0	-7	-1	10026	6	5
COc1ccc(C(=O)CSc2nnc(-c3ccco3)o2)cc1
 : -16	5.4	-17	-4	4218	7	3
O=C(O)c1nn(-c2ccc(F)cc2)ccc1=O
 : 3	2.9	-38	-7	3836	12	-2
COc1cccc2c(N/N=C/c3ccc(O)c(O)c3)cc(C)nc12
 : x	x	-34	-3	4299	x	x
O=c1[nH]c(CSc2nc(-c3ccc(F)cc3)cs2)nc2ccccc12
 : -9	7.3	-12	-1	2673	-2	1
CCOC(=O)C1CCN(C(=O)COC(=O)c2oc3ccc(OC)cc3c2C)CC1
 : 3	6.2	x	x	x	7	-4
O=C(CN1CCC(C(=O)c2ccc(F)cc2)CC1)Nc1ccccc1
 : 3	6.4	-16	5	19525*	11	6
CCOC(=O)C1CCN(S(=O)(=O)c2ccccc2[N+](=O)[O-])CC1
 : 11	3.5	x	3	4009	7	10
O=S(=O)(c1cccs1)N1CCc2ccccc21
 : -1	8.0	-11	-1	4167	15	5
COc1cc2c(cc1NC(=O)c1cccnc1)CCCC2
 : 5	6.0	-10	-2	4350	x	x
COc1ccc(OCC(=O)Nc2nnc(S(=O)(=O)N3CCCCCC3)s2)cc1
 : 16	3.7	1	-6	5696	2	0
CC(C)(C)c1nc(SCC(=O)N2CCCC2)c2ccccc2n1
 : 6	2.3	0	0	4159	3	8
CCOC(=O)C1Sc2[nH]c(=O)sc2C(c2ccc(Cl)cc2)C1C(=O)OCC (stereo unspecified)
 : -20	15	-19	-2	2936	3	5
CCN(CC(=O)Nc1ccc(Br)cc1)C(=O)c1nc2nc(C)cc(C)n2n1
 : 3	6.3	-3	x	4139	0	6
CN(Cc1c(C(=O)NN=Cc2ccccc2)nnn1-c1nonc1N)c1ccccc1
 : -2	1.4	x	x	x	5	-5
Cc1cccnc1NC(=O)c1csnn1
 : x	x	-8	4	2850	x	x
CS(=O)(=O)c1ccc(C(=O)OCC(=O)N(CCc2ccccc2)Cc2ccccc2)cc1
 : 3	3.9	8	2	5738	8	6
Cc1ccc(NC(=O)CSC(C)C(=O)NCCc2ccccn2)cc1 (stereo unspecified)
 : 5	-2.2	39	-3	4476	-6	7
COc1ccc(S(=O)(=O)NNc2nc(C)cc(C)n2)cc1[N+](=O)[O-]
 : 6	4.2	-11	9	4406	9	5
COc1ccc(CNC(=O)C2CCCN(C(=O)Nc3ccccc3OC)C2)cc1 (stereo unspecified)
 : 7	6.3	-30	-8	5805	-1	4
COc1cccc(C=NNC(=O)C(=O)N2CCCCCC2)c1OC
 : 4	4.0	x	x	x	6	-7
CCOC(=O)C1=C(C)N=c2s/c(=C/c3cccc([N+](=O)[O-])c3O)c(=O)n2C1c1cc(OC)c(OC)c(OC)c1 (stereo unspecified)
 : x	x	-4	9	3463	x	x
COCCNC(=O)/C(C#N)=C/c1c(N2CCN(C)CC2)nc2ccccn2c1=O
 : -3	0.4	-19	-4	3686	-6	7
CC(C)CC(NC(=O)c1[nH]cnc1C(=O)NC(C)C(=O)OC(C)(C)C)C(=O)OCc1ccccc1 (stereo unspecified)
 : -15	0.6	x	x	x	11	10
CCN(C[C@H]1N[C@@](CC)(C(=O)OC)[C@H]2C(=O)N(Cc3ccccc3)C(=O)[C@@H]12)C(=O)NC(C)C
 : 8	4.3	-18	x	2847	1	2
COc1ccccc1NC(=O)Cc1noc(CSc2nnc(C(F)(F)F)n2C)n1
 : 0	2.0	-26	-3	4836	5	3
NN1C(=O)/C(=C\c2ccco2)SC1=S
 : 0	6.4	x	-2	5352	15	18
CC1=CC2=NC(=O)/C(=C\c3cc(C)n(-c4ccc(F)cc4)c3C)C(=N)N2O1
 : 4	-1.8	-42	-4	2290	-2	3
O=S(=O)(NCCc1ccccc1)c1cccc2nsnc12
 : 5	4.9	1	-1	7116	4	-4
CC1(C)CC(=O)C=C(NNC(=O)c2ccccc2O)C1
 : -6	-4.8	-51	19	16377*	-9	-8
COc1ccc(NC(=O)CN2CCN(CC(=O)Nc3ccccc3Cl)CC2)cc1
 : -6	0.0	8	13	2225	x	x
COc1ccc(Br)cc1S(=O)(=O)NNC(=O)c1c(C)nc2ccccn12
 : x	x	-32	7	4248	x	x
O=c1oc2cc(O)ccc2c2c1CCCC2
 : -7	8.5	-26	-5	9176	6	4

Screening results as filed in PubChem BioAssay.
